# Screening data deposited in PubChem BioAssay by several laboratories.
# Beta apoptosis – inhibitors of cytokine-induced beta cell apoptosis, primary screen, luminescence; AID 435005, 2010; INS-1E cytokine-induced death, ATP luminescence, 48 h; percent of positive-control rescue, neutral wells zero; 0.8% of 300,000 active; protection from apoptosis, % (test concentration not listed);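 active = all replicates at 75% or more, or half of them and the mean; inconclusive = half reach 75% but not the mean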;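 also: 0% = cytokine-treated negative control wells and 100% = positive control rescue; higher means more ATP so stronger rescue from cytokine killing; wells of about 40 µL received 100 nL stock; the first replicate is given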
# Bfl-1 A1 inh – caspase 3/7 activation in MEF A1-2A-BIM cells, primary screen, A1 inhibitor project, cell-based, luminescence, HTS. Caspase-Glo 3/7 luminescence, 3 h; percent of clofoctol response, vehicle zero. caspase activation, % (test concentration not listed). 0.066% of 330,000 active. AID 2462, 2010;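 active = over half of replicate activation scores above 10%, or exactly half above 10 with the replicate mean above 10; inconclusive = replicate mean below 10 yet half the replicates above 10; inactive = over half of replicates below 10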;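 also: wells of about 30 µL received 50 nL stock; many hits fall short of the cut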
# Ecoli rRNA inh – reduced GFP signal of wild-type E. coli, primary screen, bacterial rRNA inhibitor project, GFP/RFP fluorescence, OD600, single point; E. coli WT GFP vs humanized-ribosome RFP mutants, 24 h; active compounds read low; DMSO median 0, no signal -100; GFP signal change (wild-type ribosome), % (no concentration beside the values); 1.6% of 350,000 active;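 active = significant combined selectivity score with lowered wild-type GFP, culture density cut under 30%, mutant RFP and density less affected; inactive = any of these conditions unmet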; also: one replicate is shown; some compounds called inactive have numbers as strong as hits
# RanGTP-Impb inh – inhibitors of RanGTP-importin-beta interaction, primary screen, biochemical, FRET, CFP-Ran, YFP-importin-beta, homogeneous. Ran GTPase (GTP-bound) - importin-beta complex. cell-free CFP-Ran/YFP-importin-beta FRET ratio. inhibition, % (no concentration beside the values). 1.1% of 300,000 active. AID 2216, 2009;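 active = most replicates above 15%; inconclusive = exactly half above 15%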;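 also: 0% = DMSO wells and 100% = Ran loaded with GDP instead of GTP; wells of about 40 µL received 100 nL stock; the first replicate is given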
# AF4-AF9 inh – inhibitors of AF4 peptide binding to AF9, primary screen, biochemical, AlphaScreen, biotin-AF4 peptide, FLAG-AF9, single point; Protein AF-9 (Homo sapiens), P42568; inhibition, % at 10 µM; 0.47% of 350,000 active;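 active = every replicate reaching a set inhibition limit, whatever the replicate mean, cut at about 25% in these data; inconclusive = mean inhibition reaches that limit but some replicates miss it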;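 also: 0% = plate neutral control median and 100% = total signal loss; the record names both 10 and 1 µM as test concentration; the first replicate is given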
# Target sequence (P42568 whole entry, looked up): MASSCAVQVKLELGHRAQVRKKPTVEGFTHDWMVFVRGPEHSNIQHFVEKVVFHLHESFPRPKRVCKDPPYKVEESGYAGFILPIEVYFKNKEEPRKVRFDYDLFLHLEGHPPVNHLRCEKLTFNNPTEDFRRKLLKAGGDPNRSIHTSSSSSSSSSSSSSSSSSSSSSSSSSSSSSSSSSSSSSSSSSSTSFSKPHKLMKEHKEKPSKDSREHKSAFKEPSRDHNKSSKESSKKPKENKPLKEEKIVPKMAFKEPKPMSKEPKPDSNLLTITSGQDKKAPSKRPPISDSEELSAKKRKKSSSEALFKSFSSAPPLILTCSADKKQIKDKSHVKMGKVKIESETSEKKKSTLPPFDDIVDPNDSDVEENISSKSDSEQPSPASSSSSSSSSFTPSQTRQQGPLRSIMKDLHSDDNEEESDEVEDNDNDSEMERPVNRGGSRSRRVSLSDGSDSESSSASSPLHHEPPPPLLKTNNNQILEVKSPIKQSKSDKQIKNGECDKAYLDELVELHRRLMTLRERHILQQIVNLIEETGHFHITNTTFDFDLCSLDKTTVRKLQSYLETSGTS
# Vif A3G – inhibitors of Vif binding to APOBEC3G peptide, primary screen, biochemical, TR-FRET, GST-Vif 1-94, biotin-A3G peptide, dose response retest (AID 1117319); Virion infectivity factor (Human immunodeficiency virus type 1 group M subtype B (isolate …; TR-FRET GST-Vif / biotin-A3G peptide binding; higher % means a stronger effect; test concentration not given here; strong numbers were not always called active; inhibition, %; hits with a dose series show IC50 in µM; 0.57% of 260,000 active;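 active = above the screen mean plus three standard deviations and confirmed in dose response; inconclusive = results disagree or hit not tested in dose response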;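 also: Vif residues 1-94 fused to GST binding biotinylated APOBEC3G peptide 110-148; 0% = full assay without inhibitor and 100% = GST in place of GST-Vif; retest series ran down from 100 µM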
# Calb FLC – C. albicans growth inhibition with fluconazole, primary screen, CaCi-2 strain, Alamar Blue fluorescence; growth inhibition, % (concentration not given with the values); 0.57% of 300,000 active; C. albicans CaCi-2 (fluconazole-resistant clinical isolate) + fluconazole, 48 h; AID 1979, 2009;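 active = most replicates above 75%; inconclusive = exactly half above 75%; inactive = most below 75%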;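 also: all wells also contain fluconazole at 8 µg/ml as a sub-toxic cotreatment; 0% = median of DMSO wells and 100% = median of geldanamycin control wells; wells of about 8 µL received 7.5 nL stock; the first replicate is given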
# T cruzi repl – inhibitors of intracellular T. cruzi growth, primary screen, luminescence, NIH3T3 host cells | T. cruzi beta-gal in NIH3T3, 90 h | 1.4% of 300,000 active | inhibition, % (test concentration not listed);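 active = mean inhibition across valid replicates above about 55%, limit read from the data; inconclusive = mean below that limit but half or more replicates reach it; inactive = mean below it, under half of replicates reach it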;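 also: signal also drops with host cell toxicity which is not excluded here; 0% = plate median of DMSO wells and 100% = zero luminescence signal; higher percent means less beta-gal luminescence so fewer parasites; stock transfer was 50 nL into about 50 µL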
# Ecoli rRNA inh OD600 – also measured in Ecoli rRNA inh; calls as there; OD600 change, %; measured here: OD600 growth;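 optical density of the mix in the first replicate; 0 = DMSO median and -100 = no signal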
# Ecoli rRNA inh RFP – also measured in Ecoli rRNA inh; calls as there; RFP signal change, %; measured here: RFP humanized mutant strains;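 first replicate; 0 = DMSO median and -100 = no signal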
# Active calls of the source: *; u = inconclusive; x = not tested or not shown. A portion of the library; rates above refer to the full screens.
SMILES,Beta apoptosis,Bfl-1 A1 inh,Ecoli rRNA inh,Ecoli rRNA inh OD600,Ecoli rRNA inh RFP,RanGTP-Impb inh,AF4-AF9 inh,Vif A3G,Calb FLC,T cruzi repl
CCCC1(c2ccccc2)NC(=O)N(CC(=O)Nc2ccc(N3CCOCC3)cc2)C1=O (stereo unspecified),4,-0.9,3,-12,0.4,x,8.5,x,x,x
Cc1ccc(C)c(NC(=O)CCC(=O)NNS(=O)(=O)c2ccc(Cl)cc2)c1,-3,0.0,8,21,-2.2,x,0.4,5%,x,x
CCN(CC)S(=O)(=O)c1ccc(S(=O)(=O)N2CCC(C(=O)NC3CCN(Cc4ccccc4)CC3)CC2)cc1,1,0.7,x,x,x,9.8,x,x,-15,20
COc1ccc(NC(=O)CN(C)CC(=O)Nc2ccc(Cl)cc2F)cc1,-4,-0.7,-14,-12,0.3,-3.7,-2.7,x,-4,-16
CCOC(=O)c1sc(NC(=O)/C=C/c2cnn(C)c2C)c(C(=O)OCC)c1C,-2,-1.0,x,x,x,x,x,-1%,-25,4
CC(=O)c1cccc(NC(=O)CSc2nc(=O)n(Cc3ccccn3)c3c2CCC3)c1,-6,-0.5,-6,-13,-1.4,-2.4,0.6,3%,2,-7
O=C(NCc1ccccc1)c1ccccc1Br,-6,-0.7,13,22,4.2,6.0,-2.1,-1%,29,-4
CCC1(N(C(C)=O)c2ccc(OC)cc2)C(=O)c2ccccc2C1=O,3,-0.6,x,x,x,-4.3,x,0%,u,3
COc1ccc(-c2[nH]ncc2/C=N/NC(=O)c2ccncc2)c(OC)c1,-3,0.0,8,20,-0.9,0.3,-13,x,24,-12
Cc1onc(-c2cccc(Cl)c2Cl)c1C(=O)O/N=C(\N)c1ccc([N+](=O)[O-])o1,15,-0.9,15,-4,0.6,7.0,5.5,-10%,-3,78*
CC1(C(=O)NCc2ccccn2)C=CCN1C(=O)c1ccccc1 (stereo unspecified),0,-0.4,16,17,16,1.8,-4.6,x,-14,-4
O=[N+]([O-])c1ccc(Cc2nnc(-c3ccc(F)cc3)o2)cc1,-5,-0.3,7,8,4.5,0.2,3.1,-3%,-3,-6
CCC1=NN(C(=O)COc2ccccc2)C(O)(c2ccncc2)C1 (stereo unspecified),-2,1.6,5,-3,0.5,-4.4,-0.5,-3%,-8,-15
COc1cccc(NC(=O)CN(Cc2ccccc2)S(C)(=O)=O)c1,x,0.4,2,7,0.8,-1.4,1.3,-4%,-6,-6
CC(C)(CN1CCC(Cc2ccccc2)CC1)NS(=O)(=O)c1ccccc1,x,x,-3,-24,37,-0.3,2.4,u,u,30
COc1ccc(C(=O)Nc2c(C)ccc3nsnc23)cc1[N+](=O)[O-],x,-0.1,x,x,x,-4.5,x,4%,-5,-4
COC(=O)CN(C(=S)Nc1ccc(F)cc1)C1CC(=O)N(c2ccc(OC)cc2)C1=O (stereo unspecified),-7,-0.1,x,x,x,0.8,x,-2%,0,-3
O=S(=O)(c1ccc(C(F)(F)F)cc1)N1CCCN(c2ccc(C(F)(F)F)cn2)CC1,-1,0.0,x,x,x,-4.8,0.5,x,5,42
CNC(=O)c1csc(-c2ccncc2)n1,-3,1.5,x,x,x,3.2,x,2%,-6,-17
CC(C)CCn1c(CN2CCN(Cc3ccccc3)CC2)nc2c1c(=O)[nH]c(=O)n2C,-1,1.3,x,x,x,-0.2,x,17%,-22,8
Fc1ccc(Nc2nnns2)cc1,-6,0.2,2,12,0.4,-0.5,-10,2%,-2,-2
C/C(=N\O)C(=O)NCCCn1ccnc1,-1,0.5,7,-2,-0.5,-0.8,-5.0,x,27,-2
O=C(O)c1cccc(S(=O)(=O)Nc2ccccc2C(=O)NCCc2ccccc2)c1,-8,-0.5,9,1,1.7,-0.9,-0.8,x,-2,-9
CCOCCn1c(N2CCCC2)nc2c1c(=O)[nH]c(=O)n2C,-1,-0.2,4,8,4.3,-2.4,-0.9,2%,8,-1
Cc1cc(C(=O)Nc2nc3c(s2)CCCC3)cs1,14,-6.3,x,x,x,u,x,21%,18,13
Cc1cc(C)nc(/N=C2/NC(=O)CS2)n1,-5,0.8,11,7,-3.1,-1.5,0.9,2%,5,-21
O=C(COC(=O)c1cccc2ccccc12)Nc1cccnc1Cl,0,1.1,-24,-32,-6.5,-3.2,-2.2,x,16,-10
O=C(CCCN1C(=O)c2cccc3cccc(c23)C1=O)NCCN1CCOCC1,-3,-0.1,2,-1,-1.8,7.7,-1.5,x,9,4
CC(=O)c1ccc(NC(=O)c2ccn(C(=O)OCC(C)C)n2)cc1,5,-0.2,x,x,x,3.0,x,22%,-15,-11
NS(=O)(=O)c1ccc(NC(=O)c2ccc(COc3ccccc3)o2)cc1,2,0.9,14,21,-3.2,0.0,-0.8,12%,-1,3
Cc1ccc(C(=O)NC(C)c2nnc(SCC(=O)NC3CCCC3)n2C)cc1 (stereo unspecified),-7,0.0,7,7,2.6,-6.9,-0.5,x,29,1
Cc1ccc(S(=O)(=O)CCC(=O)OCc2ccc(Cl)cc2)cc1,-1,1.5,-26*,-17*,7.5*,3.2,2.4,x,-29,-29
CCOC(=O)C1=C(C)NC(C)=C(C(=O)OCCNC(=O)c2cccnc2)C1c1cccc([N+](=O)[O-])c1 (stereo unspecified),-5,1.4,x,x,x,1.7,x,x,-1,9
CC(C)CC1NC(=O)N(CC(=O)Nc2cc(F)ccc2F)C1=O (stereo unspecified),-7,1.2,14,14,0.2,x,0.7,-11%,x,x
NS(=O)(=O)c1ccc(Nc2ccc3nonc3c2[N+](=O)[O-])cc1,-1,0.3,-4,7,4.9,2.8,-0.7,x,-11,-9
Cc1cccc(NC(=O)NC(C)C(c2cccs2)N2CCOCC2)c1 (stereo unspecified),3,0.0,7,-4,-5.3,3.8,-6.7,12%,-2,-12
CCc1ccc(C(=O)COC(=O)c2cc([N+](=O)[O-])ccc2N2CCOCC2)cc1,14,-0.4,-8,1,0.2,1.1,4.5,0%,2,18
COc1cc(-c2cc(C(=O)Nc3cccc(C(C)=O)c3)c3ccccc3n2)cc(OC)c1OC,x,-1.0,-1,-8,4.7,-0.1,-0.2,-4%,9,11
CCCOc1ncnc2c1sc1nc3c(cc12)COC(C)(C)C3,1,-0.3,9,3,-0.2,-1.4,-8.7,12%,8,-5
COc1ccc(NC(=O)CCCCCn2nnc3ccccc3c2=O)cc1OC,-3,-1.5,1,10,2.3,-2.4,-0.9,-1%,44,-4
COc1ccccc1NC(=O)CSc1ccc(-c2ccc(-n3ccnc3)cc2)nn1,x,-0.2,-4,-30,-0.8,-2.3,-2.2,x,1,-8
O=C1CCC/C(=N/NC(=O)C2CCN(S(=O)(=O)c3cccs3)CC2)C1,-1,0.0,14,5,-0.9,u,-1.0,u,0,-1
CC(C(=O)NC1CCCCC1)N1CCN(C)CC1 (stereo unspecified),-4,0.6,10,0,-3.2,6.2,-2.0,x,0,0
O=C(C(Cc1ccccc1)N1C(=O)C2C3C=CC(C3)C2C1=O)N1CCCCC1 (stereo unspecified),-5,1.0,x,x,x,1.7,x,15%,0,4
COc1ccc(N2C(=O)CC(N(C)CCc3ccc(OC)c(OC)c3)C2=O)cc1 (stereo unspecified),0,0.0,4,2,2.9,2.8,-4.1,2%,-2,-18
CCc1ccc(C(=O)COC(=O)CNC(=O)c2ccc(Br)o2)cc1,x,0.2,-22*,-17*,2.8*,-0.9,-0.6,-9%,0,0
CCOC(=O)C1CCN(c2ccc(Cl)nn2)CC1,-3,-0.3,1,-3,-4.7,0.7,-8.0,12%,4,-8
CCCC(=O)N1CCN(c2nnc(-c3ccc(C)cc3)c3ccccc23)CC1,0,0.8,-13,-27,-2.0,3.2,1.1,-1%,26,46
Cc1ccc(CN(Cc2cc3cc4c(cc3[nH]c2=O)OCCO4)Cc2nnnn2Cc2ccco2)cc1,-12,0.5,x,x,x,-11,x,u,8,-16
Cn1c(SCC(=O)NCCN2C(=O)CSC2=O)nc2ccccc2c1=O,-3,0.3,x,x,x,3.4,x,-9%,8,-3
Cc1cc(OCCOCCN2CCCC2)ccc1C(C)C,-3,-0.3,x,x,x,u,x,21%,-41,57*
Cc1cc(C)nc(SCc2cccc(C(=O)O)c2)n1,-6,-0.9,2,-3,0.9,5.4,-44,6%,1,-15
O=C(N/N=C/C=C/c1ccccc1)c1ccncc1,-7,-0.1,x,x,x,2.7,x,-6%,6,-17
Cc1cc(C)nc(OC(C(=O)O)C(OCC(C)C)(c2ccccc2)c2ccccc2)n1 (stereo unspecified),4,-1.9,-5,2,0.0,0.3,1.4,x,22,-3
CCN(CC)S(=O)(=O)c1ccc(Cl)c(NC(=O)COC(=O)c2cccn2C)c1,12,0.5,9,14,-2.8,-1.5,0.2,x,10,-6
COc1ccc(-c2cc3cc(OC)c(OC)cc3c(C)n2)cc1C,2,-1.1,5,3,2.4,-1.4,-5.8,x,-6,-1

# Next section.
SMILES,Beta apoptosis,Bfl-1 A1 inh,Ecoli rRNA inh,Ecoli rRNA inh OD600,Ecoli rRNA inh RFP,RanGTP-Impb inh,AF4-AF9 inh,Vif A3G,Calb FLC,T cruzi repl
CCCC(=O)NC1CCCc2c1cnn2-c1ccc(C)c(C)c1 (stereo unspecified),x,-0.1,-5,-3,-1.6,5.8,5.3,x,0,-7
CCN(C(=O)CSc1ncn[nH]1)c1c(N)n(Cc2ccccc2)c(=O)[nH]c1=O,-2,0.4,3,2,-3.0,0.4,-0.7,1%,-1,2
O=C(COC(=O)/C=C/c1ccccc1)Nc1ccc(Cl)cn1,1,0.3,12,6,2.3,4.6,-1.2,8%,16,0
CCOC(=O)C1CCCCN1C(=O)CCc1c(C)nc2cc(-c3ccccc3)nn2c1C (stereo unspecified),10,-0.3,5,6,0.2,u,-19,-5%,-1,10
CCn1c(SCC(=O)Nc2nc(C)cs2)nnc1-c1ccncc1,-6,0.1,9,15,0.0,4.2,0.4,x,-12,-2
CC(C)Cc1nn2c(=O)cc(O)nc2s1,1,-5.6,4,9,-0.3,-0.7,0.4,4%,-13,-7
